AF4-AF9 inh – inhibitors of AF4 peptide binding to AF9, primary screen, biochemical, AlphaScreen, biotin-AF4 peptide, FLAG-AF9, single point; Protein AF-9 (Homo sapiens), P42568; 350,000 tested, 0.47% active; inhibition, % at 10 µM; AID 651704, 2012;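 active means every replicate reaching a set inhibition limit, whatever the replicate mean, cut at about 25% in these data; inconclusive means mean inhibition reaches that limit but some replicates miss it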;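 further: 0% = plate neutral control median and 100% = total signal loss; the record names both 10 and 1 µM as test concentration; the first replicate is given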
Target sequence (P42568 whole entry, looked up): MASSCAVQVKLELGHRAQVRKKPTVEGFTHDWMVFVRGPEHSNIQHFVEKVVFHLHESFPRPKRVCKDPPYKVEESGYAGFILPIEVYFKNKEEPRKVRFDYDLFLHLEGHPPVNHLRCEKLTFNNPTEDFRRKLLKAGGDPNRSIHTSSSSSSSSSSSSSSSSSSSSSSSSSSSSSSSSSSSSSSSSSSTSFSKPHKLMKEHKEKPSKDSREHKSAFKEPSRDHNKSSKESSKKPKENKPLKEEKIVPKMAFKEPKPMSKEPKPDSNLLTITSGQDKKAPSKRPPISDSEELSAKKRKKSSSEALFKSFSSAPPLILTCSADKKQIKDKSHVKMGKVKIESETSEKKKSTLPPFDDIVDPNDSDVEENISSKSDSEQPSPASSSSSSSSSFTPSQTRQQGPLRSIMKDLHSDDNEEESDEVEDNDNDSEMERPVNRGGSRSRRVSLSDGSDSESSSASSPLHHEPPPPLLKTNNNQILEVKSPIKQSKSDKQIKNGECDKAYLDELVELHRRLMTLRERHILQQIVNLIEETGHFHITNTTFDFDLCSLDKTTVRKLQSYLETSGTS
FGF22 binding – binders of human FGF22 protein, primary screen, FGF22 synaptogenesis inhibitor project, biophysical, thermal shift, single point. Fibroblast growth factor 22 (Homo sapiens), Q9HCT0. calls only at 9.99 µM. recombinant FGF22 thermal shift, SYPRO orange fluorescence; percent of sucrose octasulfate shift, DMSO zero. 340,000 tested, 1.5% active;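 active means melting point raised past a set limit in the mean and every replicate; inconclusive means no clear call; three in four hits are not shown here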
RanGTP-Impb inh – inhibitors of RanGTP-importin-beta interaction, primary screen, biochemical, FRET, CFP-Ran, YFP-importin-beta, homogeneous; Ran GTPase (GTP-bound) - importin-beta complex; cell-free CFP-Ran/YFP-importin-beta FRET ratio; inhibition, % (concentration not given with the values); 300,000 tested, 1.1% active;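 active means most replicates above 15%; inconclusive means exactly half above 15%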;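 further: 0% = DMSO wells and 100% = Ran loaded with GDP instead of GTP; wells of about 40 µL received 100 nL stock; the first replicate is given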
Vif TR-FRET – inhibitors of Vif binding to APOBEC3G peptide, primary screen, biochemical, TR-FRET, GST-Vif 1-94, biotin-A3G peptide, dose response retest (AID 1117319); Virion infectivity factor (Human immunodeficiency virus type 1 group M subtype B (isolate …; TR-FRET GST-Vif / biotin-A3G peptide binding; higher % means a stronger effect; test concentration not given here; strong numbers were not always called active; one-dose inhibition, %; IC50 in µM for titrated hits; 260,000 tested, 0.57% active;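 active means above the screen mean plus three standard deviations and confirmed in dose response; inconclusive means results disagree or hit not tested in dose response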;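 further: Vif residues 1-94 fused to GST binding biotinylated APOBEC3G peptide 110-148; 0% = full assay without inhibitor and 100% = GST in place of GST-Vif; retest series ran down from 100 µM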
UCH37 inh – inhibitors of human UCH37 deubiquitinase, primary screen, biochemical, Ub-AMC cleavage, fluorescence; Ubiquitin carboxyl-terminal hydrolase isozyme L5 (Homo sapiens), Q9Y5K5; purified proteasome/UCH37; inhibition, % (no concentration beside the values); 330,000 tested, 0.33% active;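 active means mean of two replicates above 20%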;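 further: 0% = compound-free wells with enzyme and 100% = wells lacking proteasome; stock transfer was 100 nL into about 20 µL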
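assay system = human UCH37 enzyme supplied as purified proteasome complex | amount = proteasome at 0.15 nM in the dispensed enzyme solution | schedule = 30 min compound-proteasome preincubation then 25 min substrate reaction, room temperature | measured by = fluorescence, ex 355 nm, em 460 nm | benchmarks = no-proteasome wells (full inhibition) and compound-free wells (no inhibition)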
HNF4A DNA FP – change in binding of human HNF4A to DNA, primary screen, biochemical, fluorescence polarization, FITC-DNA. Hepatocyte nuclear factor 4-alpha (Homo sapiens), P41235. 1 h. activity change, % at 10 µM. 360,000 tested, 0.3% active; in the data active means activity change above about 30%, passing the limit was not always enough;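 further: controls were the assay level and a saturating level of protein; the project sought stronger binding though the title names inhibitors; some compounds called inactive have numbers as strong as hits; positive values seem to mean higher polarization but the record does not say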
Target sequence (P41235 whole entry, looked up): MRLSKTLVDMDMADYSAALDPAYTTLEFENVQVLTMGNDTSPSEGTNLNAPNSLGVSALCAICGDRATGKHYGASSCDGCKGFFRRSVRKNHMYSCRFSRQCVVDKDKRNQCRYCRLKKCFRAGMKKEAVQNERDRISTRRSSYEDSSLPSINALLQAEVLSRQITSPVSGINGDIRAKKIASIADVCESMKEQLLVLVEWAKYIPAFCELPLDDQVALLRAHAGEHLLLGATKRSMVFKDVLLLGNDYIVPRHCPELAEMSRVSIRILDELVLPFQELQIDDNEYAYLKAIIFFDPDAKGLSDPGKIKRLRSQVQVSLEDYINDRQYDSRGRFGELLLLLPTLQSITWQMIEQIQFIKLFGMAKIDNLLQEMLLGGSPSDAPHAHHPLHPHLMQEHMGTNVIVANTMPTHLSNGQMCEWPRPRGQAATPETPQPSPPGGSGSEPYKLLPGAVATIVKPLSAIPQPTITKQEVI
E coli growth – E. coli growth inhibition, primary screen, OD600 | OD600 absorbance (no concentration beside the values) | Escherichia coli growth, 23 h; active compounds read low | 330,000 tested, 0.21% active;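 active means OD600 absorbance below the run mean of sample wells minus 3.6 SD, in any replicate, cut at about 0.56 in these data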;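 further: stock transfer was 300 nL into about 60 µL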
The depositor's hits bear a star; i = inactive; ? = inconclusive; . = not tested or not shown. Only part of the results is shown. The share of hits here may be higher or lower than overall.

molecule	UCH37 inh	AF4-AF9 inh	FGF22 binding	Vif TR-FRET	E coli growth	HNF4A DNA FP	RanGTP-Impb inh
Cc1cc(C)[n+](CCCC[n+]2c(C)cc(C)cc2C)c(C)c1	-0.5	-6.0	i	.	0.72	2.8	0.2
CCCc1c(C)nc(SCC(=O)C(C)(C)C)nc1OC(=O)N(C)C	1.8	-3.5	i	0%	0.63	-3.1	-1.7
N#CCCn1cc(C(=O)Nc2ccc([N+](=O)[O-])cc2)c(-c2ccc3c(c2)OCCO3)n1	4.2	2.5	i	13%	0.67	-0.2	-1.1
O=[N+]([O-])c1ccc(NCCO)c2ncccc12	13	.	.	-3%	0.64	4.6	1.4
Cc1ccsc1C(=O)C1CCCN(Cc2c(C)nn(C(C)C)c2C)C1 (stereo unspecified)	2.4	-0.3	.	.	0.69	1.4	0.9
CC/C(CC(c1ccccc1)c1c(O)c2ccccc2oc1=O)=N\NC(N)=S (stereo unspecified)	.	.	.	-3%	.	0.1	-0.7
CN1CCN(CCC(C#N)(c2ccccc2)c2ccccc2)CC1	4.6	.	.	28%	0.71	0.8	-1.3
CCOC(=O)C1=C(N)Oc2ccccc2C12C(=O)N(CC(=O)OC)C(CC(=O)OC)=C2C(=O)OC (stereo unspecified)	1.6	.	.	1%	0.75	-2.0	2.7
COc1cc(C2c3cc4c(c(O)c3CC3COC(=O)C32)OCO4)cc(OC)c1OC (stereo unspecified)	.	-2.1	i	-8%	.	-0.2	.
CN1CCCN(C(=O)COc2ccccc2)CC1	3.9	-0.7	i	3%	0.69	-0.1	3.0
Cc1cccc(-n2c(O)c(C=NCCCN3CCOCC3)c(=O)[nH]c2=O)c1C	0.7	.	.	16%	0.7	2.4	6.7
C=CCn1c(O)c(/C=C2\C=Nc3ccccc32)c(=O)[nH]c1=O	4.6	1.8	.	1%	0.64	1.3	-3.4
N#Cc1ccc(/C=C/C(=O)O)cc1	5.1	0.4	i	.	0.62	0.6	-0.8
CC12CN3CC(C)(CN(C1)C3c1cccs1)C2=O (stereo unspecified)	0.1	-0.9	i	.	0.69	0.2	-1.2
O=C1NC(=S)NC(=O)C1Cc1ccccc1	.	-2.2	i	-6%	.	-3.7	.
Cc1ccc(C(O)(C(=O)OC(C)C)C(O)c2ccccc2)cc1 (stereo unspecified)	.	13	i	.	.	2.0	.
COc1ccc(C(=O)C2CCCN(C3CSCCSC3)C2)c(OC)c1 (stereo unspecified)	.	5.3	i	-7%	.	-0.5	3.2
Cc1ccc2cccc(OC(=O)N3CCCC3)c2n1	-0.7	.	.	13%	0.69	-2.4	6.4
CCCCn1c(=O)c(C(=O)Nc2ccsc2C(=O)OC)c(O)c2ccccc21	-200	.	.	-3%	0.64	3.5	-3.4
COP(=O)(OC)C(Nc1ccccn1)c1ccccc1 (stereo unspecified)	4.4	-2.7	i	13%	0.67	-2.7	2.1
Cc1ccc2c(c1)C(c1ccccc1)NCC(=O)N2 (stereo unspecified)	-2.1	.	.	15%	0.71	-2.8	2.6
CC[N+]12CCC(CC1)C(C(O)(c1ccccc1)c1ccccc1)C2 (stereo unspecified)	1.3	-0.4	i	5%	0.67	0.7	0.3
C=CCNC(=O)c1c(N)n(Cc2ccco2)c2nc3ccccc3nc12	-230	.	.	31%	0.69	-1.3	77*
c1cncc(CNCCN2CCNCC2)c1	-0.3	-1.1	i	8%	0.64	4.6	.
O=c1c2ccccc2nc(-c2ccc(Cl)cc2Cl)n1-c1nccs1	-0.6	.	.	-9%	0.68	3.2	2.0
CCC1(c2ccc(-c3ccccc3)cc2)C(=O)NC(=O)NC1=O	1.3	-6.9	i	7%	0.68	-0.5	-3.4
COc1ccc2[nH]cc(CCNCc3cccnc3)c2c1	4.0	8.2	i	.	0.69	0.8	-7.9
CCNC(=S)N(C)CCc1cc2c(c(OC)c1C=C1C(=O)N(C)C(=O)N(C)C1=O)OCO2	.	-3.1	i	-3%	.	-0.6	-4.0
CCOC(=O)[C@]12Cc3cc(OC)ccc3[C@H]1N(CC(=O)OC)C(=O)c1cc(OC)ccc12	.	-3.9	i	.	.	-2.9	.
OCC1(CO)COC(c2cccnc2)N1 (stereo unspecified)	1.6	.	.	0%	0.71	-0.9	-2.0
COc1ccc(CN2C(=O)NC(=O)/C(=C/c3ccc([N+](=O)[O-])s3)C2=O)cc1	.	1.4	i	14µM*	.	2.6	-3.3
O=c1[nH]c(O)c(N=Nc2ccc(SC(F)F)cc2)c(=O)[nH]1	8.7	-3.9	i	.	0.71	-2.7	-6.1
Cc1cccc(-n2c(O)c(C=Nc3ccc(Br)cn3)c(=O)[nH]c2=O)c1	0.0	-1.9	.	0%	0.68	4.2	-7.3
CCCC1(CCC)C(=O)NC(=NCc2ccccc2)NC1=O	3.5	.	.	-6%	0.65	1.6	-1.9
CC(C)CN1Cc2cc(-c3cccc(F)c3)ccc2-n2nncc2C1	.	-2.2	i	.	.	0.3	.
NC(Cc1ccccc1)c1nn[nH]n1 (stereo unspecified)	4.3	-3.2	i	3%	0.68	-2.2	.
O=C(CNC(=O)c1ccc(Cl)cc1)Nc1ccc(Br)cc1C(=O)c1ccccc1	-0.5	-2.1	i	-6%	0.7	0.8	1.2
CC(=O)Nc1ccc(C(=O)OCC(=O)N(c2ccccc2)C2CCS(=O)(=O)C2)cc1 (stereo unspecified)	-2.5	1.9	i	-7%	0.68	3.2	.
N#Cc1ccc(NC(=O)CCNC(=O)c2ccco2)cc1Cl	2.4	-4.8	i	.	0.66	2.5	1.0
Cc1cc(N2CCOCC2)ccc1/C=C1\C(=O)NC(=O)N(c2ccccc2)C1=O	5.6	-6.9	i	6%	0.69	5.3	0.6
CCOP(=S)(OCC)Oc1cc(C)oc(=O)c1Cl	1.9	-6.7	i	.	0.65	-1.0	1.9
CCc1ccc(N2C(=O)NC(=O)/C(=C\c3cc(C)n(-c4cc(C(=O)O)cc(C(=O)O)c4)c3C)C2=O)cc1	.	-2.4	i	27%	.	-19	19*
c1ccc(C(CN2CCCCC2)c2ccccc2)cc1	3.6	-3.9	i	-3%	0.68	1.4	.
O=C1C2CCCN2C(c2cccnc2)N1c1cccc(Cl)c1 (stereo unspecified)	3.9	-1.1	i	2%	0.75	-0.4	1.0
O=c1[nH]c(=O)n(Cc2ccc(F)cc2)c(O)c1C=NCCCO	2.0	.	.	?	0.7	4.3	-2.6
COc1cccc(/C=C2\N=C(c3cncc(Br)c3)OC2=O)c1	-0.7	-2.0	i	?	0.64	-0.4	-1.4
COc1cc(C)cc2oc(=O)c(CC(=O)N3C[C@H]4C[C@@H](C3)c3cccc(=O)n3C4)c(C)c12	-146	-0.5	i	.	0.69	2.9	0.9
O=C(C1CCC(=O)N1C1CCCC1)N1CCC2(CC1)OCCO2 (stereo unspecified)	-2.9	.	.	1%	0.76	-4.9	0.8
CC(=O)c1cc(C(C)=O)c(C)[n+](C)c1C	2.4	1.5	i	-4%	0.65	2.1	5.6
COc1ccc(C(=O)OCC2CN2c2cccc([N+](=O)[O-])c2)cc1 (stereo unspecified)	.	1.9	i	.	.	2.0	.

Next results.
molecule	UCH37 inh	AF4-AF9 inh	FGF22 binding	Vif TR-FRET	E coli growth	HNF4A DNA FP	RanGTP-Impb inh
COc1ccc(Cn2c(O)c(/C=N/NC(=O)c3ccncc3)c(=O)[nH]c2=O)cc1	-13	13	i	28%	0.7	2.8	2.8
COC(=O)C1=C(c2ccc(F)cc2OCc2ccccc2)C[C@@H]2CC[C@H]1N2C(=O)NC1CCCCC1	3.2	3.3	i	.	.	22	.
COc1ccc(C2CC(c3c(O)n(CCc4ccccc4)c(=O)[nH]c3=O)=NN2)cc1OC (stereo unspecified)	2.1	1.5	i	23%	0.65	-2.0	2.2
Oc1ccc(Cl)cc1CN1CCN(Cc2ccccc2)CC1	4.8	.	.	1%	0.64	-1.1	-2.6
c1ccc(CN2Cc3ccccc3-n3nncc3C2)nc1	.	-0.9	i	2%	.	-3.4	.
CC(C)C[C@H](NP(=O)(O)O[C@@H]1O[C@@H](C)[C@H](O)[C@@H](O)[C@H]1O)C(=O)N[C@@H](Cc1c[nH]c2ccccc12)C(=O)O	1.3	-2.5	i	.	.	0.2	.
CCn1cc(C(=O)c2cccs2)c2ccccc21	7.1	.	.	-5%	0.67	-0.7	1.1
COc1ccc(OC)c([C@@H](O)[C@H](C)NC(C)(C)C)c1	-0.8	0.0	i	-8%	.	1.9	-1.6
CC(C)Oc1cc(-n2c(=S)[nH]c3ccccc3c2=O)c(Cl)cc1Cl	2.3	.	.	7%	0.74	0.4	3.8
CN1CCC(O)(c2cccs2)C(C(=O)c2cccs2)C1 (stereo unspecified)	0.1	-6.0	i	.	0.58	5.4	3.1
O=c1cc(C(F)(F)F)c2cc3c4c(c2o1)CCCN4CCC3	-9.0	.	.	-2%	0.72	-73	-243
O=C(Cc1ccccc1)N1CCN(Cc2ccc(F)cc2)CC1	2.3	5.0	i	.	0.65	5.7	3.5
CN1C(=O)C(=Cc2ccccc2OCc2ccc(C(=O)O)cc2)C(=O)N(C)C1=O	1.9	-2.3	i	-6%	0.68	2.2	6.6
NC(Cc1ccc(F)cc1)c1csc(Nc2ncccn2)n1 (stereo unspecified)	.	-0.2	i	.	.	2.5	.
COC(=O)C1=C(c2cc3ccccc3s2)C[C@@H]2CC[C@H]1N2C(=O)NCCS(C)=O (stereo partly specified)	0.8	-1.9	i	.	.	1.3	-4.2
Cc1cc(OCC(=O)NCc2ccc(S(N)(=O)=O)cc2)c2c3c(c(=O)oc2c1)CCC3	-17	-8.3	i	.	0.71	0.5	1.1
O=C(Cc1ccccc1)Oc1cccc(N2C(=O)CCC2=O)c1	-0.8	.	.	-2%	0.75	-1.7	0.2
COc1ccc(OCC(=O)N2CCN(Cc3c[nH]c4ccccc34)CC2)cc1	-1.3	.	.	15%	0.76	1.7	4.7
CN(C(=O)Oc1ccc(C(=O)c2ccc(Cl)cc2)cc1)c1ccccc1	2.7	.	.	.	0.68	1.0	3.2
C[C@@]12CC[C@@H](c3cc4c(cc3C1)OCO4)N2c1ccccc1	.	3.2	i	.	.	-3.9	.
CCOc1cccc(=NC2CCCCC2)c2c(C)[nH]c(C)c12	.	31*	i	31%	.	5.5	0.5
CCC(=O)N1c2ccc(S(=O)(=O)CCC(=O)N3CCC4(CC3)OCCO4)cc2CC1C (stereo unspecified)	0.4	.	.	0%	0.76	-2.4	-5.3
Cc1nn(-c2ccccc2)c(Cl)c1C1C(C#N)=C(N)Oc2c1c(=O)oc1ccccc21 (stereo unspecified)	1.1	.	.	-2%	0.75	-1.6	2.7
CCCCCCn1c(O)c(/C=N/N2CCCCCC2)c(=O)[nH]c1=O	4.6	-2.1	i	.	0.61	-0.8	0.7
CSc1nc(C)c(Br)c(N2CC2)n1	2.9	-3.9	i	7%	0.64	3.9	.
